# Abeta yeast res: qHTS for compounds that reverse cellular toxicity of Amyloid beta (A-beta) peptide in yeast: Primary Screen. AID 1347071, 2019. hit rate 0.063% among 410,000. Potency, µM (titrated, usually from 46.1 µM), for the others: top-dose growth rescue, usual class: activators. yeast expressing A-beta42, growth rescue, OD600, 48 h; response scale: 0% DMSO, 100% iron-clioquinol control; further: potency means the concentration at half of the fitted maximal effect; nearly all actives have a fitted effect of over 55% in size
#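 Yeast growth medium received pinned compounds, then yeast cells expressing toxic A-beta were added; plates incubated at 30 C for 48 hr. Growth read as absorbance at 600 nm, normalized to DMSO and equimolar FeCl3 plus clioquinol controls.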
# D3 antag: qHTS of D3 Dopamine Receptor Antagonist: qHTS. D(3) dopamine receptor (Homo sapiens), P35462. D3R cells, DiscoveRx beta-arrestin luminescence, antagonist mode; stronger effect = lower value. max response, negative = inhibition, %. hit rate 2.5% among 360,000; in the data active means max response below about -50%; inconclusive means no clear call, values can overlap the other calls; further: on the % scale 0 is the no-effect control and ±100 the full control effect; mostly tested at two doses, the higher about 12 µM
# Target sequence (P35462 whole entry, looked up): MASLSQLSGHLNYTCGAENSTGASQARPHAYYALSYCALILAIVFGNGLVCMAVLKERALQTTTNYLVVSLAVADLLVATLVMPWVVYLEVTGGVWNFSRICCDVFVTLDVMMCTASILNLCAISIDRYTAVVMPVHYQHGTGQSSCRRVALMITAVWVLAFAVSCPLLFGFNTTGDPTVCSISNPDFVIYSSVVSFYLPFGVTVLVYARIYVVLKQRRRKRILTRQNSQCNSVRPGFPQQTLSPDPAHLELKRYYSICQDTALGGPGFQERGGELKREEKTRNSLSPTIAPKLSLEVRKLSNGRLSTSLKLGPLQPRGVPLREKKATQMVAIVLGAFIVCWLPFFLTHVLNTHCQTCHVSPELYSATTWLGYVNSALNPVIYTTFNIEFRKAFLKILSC
#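 Cells expressing the human receptor were seeded at 1500 cells/well, incubated overnight at 37 degrees C in 5% CO2, then exposed to library compounds with dopamine controls for 90 minutes at 37 degrees C before luminescent detection.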
# FUS suppressor: qHTS for Suppressors of FUS Proteinopathy: Primary screen using FUS-linked yeast assay | S. cerevisiae FUS-expressing, growth rescue, OD600, 24 h | Potency, µM (highest dose often 76.6 µM), inactives show top-dose growth rescue (activation), hits mostly activators | hit rate 0.24% among 390,000 | AID 1347120, 2019;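 further: potency means the concentration at half of the fitted maximal effect; plate controls were DMSO vehicle for no effect and reference control for full effect; nearly all actives have a fitted effect of over 55% in size; some results filed as inactive show a strong effect at the top dose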
#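 S. cerevisiae expressing FUS from galactose induction served as the toxicity model. Growth after 24hr at 30C, read as absorbance at 600 nm, indicates suppression of toxicity; compounds dosed at several concentrations.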
# DRD3 agonist: qHTS of D3 Dopamine Receptor Agonist: qHTS; hit rate 0.58% among 410,000; max activation, %; D3R DiscoveRx beta-arrestin cells, luminescence, 90 min; D(3) dopamine receptor (Homo sapiens), P35462; in the data active means max activation above about 30%; further: 0% is about no effect; mostly tested at two doses, the higher about 12 µM
#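 Cells at 1500/well, incubated overnight, then treated with pinned compounds (dopamine as control) for 90 min at 37 degrees C. DiscoveRx reagent added for 30 - 60 minutes at room temperature; luminescence read.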
# TDP-43 yeast inh: qHTS of TDP-43 Inhibitors; Potency, µM (series often up to 46.1 µM), inactives show at the top dose growth rescue (activation), actives largely listed as activators; TDP-43 expressing yeast growth rescue, BacTiter-Glo, 24 h; hit rate 1.8% among 410,000; further: potency means the concentration at half of the fitted maximal effect; % of control where 0% means no effect; nearly all actives have a fitted effect of over 50% in size
#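 Galactose-induced TDP-43 yeast, OD600=0.02, compound pinned; 24 hr, 30 deg C; BacTiter-Glo luminescence for growth. Inhibitors of TDP-43 toxicity read as activators.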
# aSyn rescue: qHTS of alpha-syn Inhibitors. Yeast expressing alpha-synuclein, growth rescue, BacTiter-Glo, 24 h. hit rate 0.14% among 370,000. Potency, µM (highest dose often 46.1 µM), for the others: at the top dose growth rescue (activation), usual class: activators; further: potency means the concentration at half of the fitted maximal effect; % of control where 0% means no effect; nearly all actives have a fitted effect of over 65% in size
#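 Galactose-induced alpha-syn yeast (OD600=0.02, raffinose-pregrown) + pinned cpd, 24 hr, 30 deg C; growth by BacTiter-Glo luminescence. Growth restoration scores as activation.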
# * hit, by the source's call; ? = inconclusive; / = not tested or not shown; & = joins results of further samples; [ ] = another dose, or the depositor's remark. Unless noted, the call rests on the fitted dose curve; in most records, active means well fitted curve in the direction sought with a large enough effect; inconclusive means small, poorly fitted or top-dose-only effect, or another doubt; inactive means no such curve, though single readings can be large; an effect the other way counts as inactive or inconclusive. An excerpt. The share of hits here may be higher or lower than overall.
SMILES,Abeta yeast res,D3 antag,FUS suppressor,DRD3 agonist,TDP-43 yeast inh,aSyn rescue
Cc1ccc2nc(-c3cccc(-c4cccc(Cl)c4)c3)c(NCc3ccccc3)n2c1,-59%[inhibitor],8,?,5,-61%[inhibitor],-65%[inhibitor]
CCOC(=O)N1CCN(C(=O)c2ccc3c(c2)NC(=O)/C(=C\c2ccc(OC)c(OC)c2)S3)CC1,-7%,36,19%,-1,18%,3%
COc1ccc(-c2cnnn2-c2ccc(NC(=O)c3ccco3)cc2)cc1OC,7%,17,-21%,2,-5%,-6%
COc1ccc(/C=N/n2cnc3c([nH]c4ccc(Br)cc43)c2=O)cc1CN1CCOCC1,-7%,44,3%,2,-7%,12%
C[C@H](NC(=O)c1nc[nH]c1C(=O)NC1CCN(C(=O)OC(C)(C)C)CC1)C(=O)OCc1ccccc1,-7%,74,42%,34*,4%,-13%
Cn1ccc2c(N3CCCCCCC3)cc3c(c21)C1CCC3O1 (stereo not drawn),-3%,0,19%,-3,29%,1%
Fc1ccc(Oc2ccc3nnc(C(F)(F)F)n3n2)cc1,4%,3,9%,-1,5%,-12%
Cc1cc([N+](=O)[O-])cc2c1NC(=O)C2(O)N1CCCC(C)C1 (stereo not drawn),3%,-2,-17%,-2,7%,1%
CC(=O)c1c(C)[nH]c(C(=O)N2c3ccccc3CC2C)c1C (stereo not drawn),-6%,-27,-12%,-6,15%,-3%
COc1ccc2c(c1)CCc1c(C(=O)NCc3cccnc3)noc1-2,8%,-15,/,-4,6%,-4%
CCCCNC(=O)C1(C)CCCCCN1Cc1cc2ccccc2o1 (stereo not drawn),13%,20,-4%,5,-22%,9%
O=C(Nc1ccc2oc(=O)ccc2c1)c1ccc(-c2cccc(Cl)c2)o1,14%,5,5%,3,7%,2%
O=C(/C=C/NNC(=O)c1ccccc1)c1ccc([N+](=O)[O-])cc1,-31%[inhibitor],-28,2%,-8,-5%,-12%
Cc1c(OC(C)C(=O)N2C[C@H]3C[C@@H](C2)c2cccc(=O)n2C3)ccc2c3c(c(=O)oc12)CCC3 (stereo partly drawn),-2%,-15,10%,-24,24%,2%
CCOC(=O)CC1COCCN1C(=O)c1cc(COc2ccc(F)c(F)c2)on1 (stereo not drawn),0%,4,1%,0,20%,5%
CCOc1cc(Br)c(CC(=O)O)cc1OCC,9%,1,-32%,10,-5%,6%
OC(CN1CCc2ccccc2C1)c1ccccc1 (stereo not drawn),6%,-24,-25%,-25,12%,-2%
CC[C@@H]1C=C(C(=O)O)[C@H](c2ccc3c(c2)OCO3)N1S(=O)(=O)c1ccc(C)cc1,3%,0,12%,16,31%,-8%
COC(=O)C1=C(C)N(Cc2ccco2)C(=O)N[C@H]1c1cccc(C(F)(F)F)c1,1%,25,?,2,?,10%
CC1(C(=O)NC2CCN(Cc3ccccc3)CC2)CCN1Cc1ccc2ccccc2c1 (stereo not drawn),-1%,-97*,-6%,-11,20%,6%
CCCCOc1ccccc1-c1cc(C(=O)O)[nH]n1,17%,2,-9%,1,7%,4%
CC1CCCN(c2ccc3nc4ccccc4c(=O)n3n2)C1 (stereo not drawn),-16%,9,21%,1,22%,-23%
CC(C)C(C(=O)N1CCOCC1)N1C(=O)c2ccccc2C1=O (stereo not drawn),0%,-4,17%,1,-16%,0%
COc1ccc(C(C)NCCC(c2ccc(OC(C)C)cc2)c2ccccc2OC)cc1 (stereo not drawn),6%,5,33%,-14,-3%,1%
COC(=O)c1ccc2nc(-c3ccc(Cl)cc3)c(Cc3ccsc3)n2c1,-6%,0,15%,4,24%,-1%
CCC(=O)NS(=O)(=O)c1cccnc1Nc1ccccc1Cl,0%,19,1%,11,18%,-2%
CCCCn1nnnc1C(c1cc2ccccc2o1)N1CCOCC1 (stereo not drawn),2%,4,-12%,7,?,3%
Cc1cccc(C(=O)OCC(=O)NCC2COc3ccccc3O2)c1 (stereo not drawn),8%,21,/,6,0%,7%
COC(=O)c1ccc2nc(-c3ccc(F)cc3)c(Cc3ccccc3)n2c1,-18%,-19,33%,-12,?,4%
O=S(=O)(Cc1ccccc1Cl)c1ncn[nH]1,-3%,0,28%,-10,-24%,-1%

# Record cards, from the list above. Screens in order: Abeta yeast res	D3 antag	FUS suppressor	DRD3 agonist	TDP-43 yeast inh	aSyn rescue
# CC(C)C(C(=O)N1CCOCC1)N1C(=O)c2ccccc2C1=O (stereo not drawn) is listed as 0%	-4	17%	1	-16%	0%
# COC(=O)c1ccc2nc(-c3ccc(Cl)cc3)c(Cc3ccsc3)n2c1 is listed as -6%	0	15%	4	24%	-1%
# CCOc1cc(Br)c(CC(=O)O)cc1OCC is listed as 9%	1	-32%	10	-5%	6%
# COc1ccc(C(C)NCCC(c2ccc(OC(C)C)cc2)c2ccccc2OC)cc1 (stereo not drawn) is listed as 6%	5	33%	-14	-3%	1%

# (listing goes on)
SMILES,Abeta yeast res,D3 antag,FUS suppressor,DRD3 agonist,TDP-43 yeast inh,aSyn rescue
C/C(=N\NC(=O)c1ccc(NS(=O)(=O)c2cccs2)cc1)c1ccc2ccccc2c1,-6%,-4,23%,5,5%,0%
COc1ccc(/C=C/C(=O)NC(=S)N2CCCC(C(N)=O)C2)cc1 (stereo not drawn),-1%,-10,28%,-19,-13%,-2%
COc1ccc2c(c1)[nH]c1c(=O)n(/N=C/c3ccc(OC)c(CN4CCCCC4)c3)cnc12,9%,0,4%,-4,-5%,5%
Cc1[nH]c2ccccc2c1C(=O)C(=O)N1CCCc2ccccc21,11%,0,10%,-2,14%,10%
CCC(=O)N1C(C(=O)O)CSC1c1ccc(OC)cc1 (stereo not drawn),1%,-3,-25%,5,1%,-7%
CCCn1nnc(NC(=O)c2ccc(-c3cc(Cl)ccc3Cl)o2)n1,-12%,-25,-18%,-1,-2%,-3%
Cc1cc(C)c2c(CC(=O)Nc3ccc(Cl)cn3)coc2c1,7%,4,-22%,-2,14%,-1%
O=C1[C@H]2CCC=C[C@H]2[C@H](c2ccccc2Br)N1Cc1ccccc1,-47%[inhibitor],-21,41%,-51,?,?
COc1cc(Cl)c(S(=O)(=O)N2CCCC2)cc1Cl,30%,58,18%,1,/,5%
C=CCn1c(SCC(=O)Nc2c(C)nn(Cc3ccccc3)c2C)nnc1C(O)c1ccccc1 (stereo not drawn),-5%,7,1%,0,-10%,2%
CC(=O)N(C)c1ccc(NC(=O)C(c2ccccc2)c2ccccc2)cc1,10%,-22,40%,-8,10%,-7%
Cc1cc(C#Cc2c(-c3ccccc3)n(C)c3ccccc23)ccc1F,-12%,-15,9%,5,8%,14%
C[C@H](NC(=O)c1nc[nH]c1C(=O)NCC(=O)OC(C)(C)C)C(=O)OCc1ccccc1,-4%,70,33%,48*,21%,5%
Cc1ccc(C2(c3noc(CN4C[C@@H](C)O[C@@H](C)C4)n3)CCCC2)cc1,10%,15,10%,3,-6%,1%
COc1ccc(/C=N/NC(=O)c2ccc(NS(=O)(=O)c3cccs3)cc2)cc1,7%,-8,-6%,1,18%,1%
Cc1cc(C)c(S(=O)(=O)Nc2cccc(/C=C/C(=O)O)c2)c(C)c1,4%,28,19%,11,10%,0%
CN(c1ccccc1)S(=O)(=O)c1ccc(C(=O)OCC(=O)NC(N)=O)cc1,4%,-12,-13%,1,5%,6%
Cc1c(N2C(=O)CSC2c2ccco2)c(=O)n(-c2ccccc2)n1C (stereo not drawn),2%,-6,5%,-7,-14%,-7%
O=C(O)c1ccc(C2(c3ccc(C(=O)O)cc3)OC(=O)c3ccccc32)cc1,-2%,1,-9%,3,-12%,0%
CC(OC(=O)c1cccs1)C(=O)NC1CC1 (stereo not drawn),-4%,0,-12%,12,-2%,1%
COc1cc(CNC(=O)c2cc(-c3ccc(F)cc3C)n[nH]2)cc(OC)c1,-8%,0,-1%,-10,4%,-17%
CCOC(=O)N1CCN(C(=O)c2cc(Cl)c(Cl)cc2C(=O)O)CC1,-24%,-1,19%,-6,-9%,2%
COc1ccc(NC(=O)N2CCCC2C(=O)Nc2cccc(C)c2C)cc1 (stereo not drawn),4%,6,-26%,-1,6%,5%
CCC(C)N1CCCC1C(=O)Nc1c(C)cc(C)cc1C (stereo not drawn),-9%,31,6%,-15,-22%,-26%
O=C(NC1CCOC1=O)OCc1ccccc1 (stereo not drawn),7%,0,-5%,-2,23%,0%
O=C(/C=C/c1cn(-c2ccccc2)nc1-c1cccs1)NCCN1CCOCC1,18%,26,10%,5,-8%,5%
Cc1ccc(S(=O)(=O)N2[C@@H](c3cccc(Cl)c3)C(C(=O)O)=CC[C@H]2c2cccc(C)c2)cc1,-10%,?,-17%,-12,-8%,-3%
CCOC(=O)c1cc2ccc3ccccc3c2oc1=O,-25%,-4,-5%,1,20%,-17%
C/C=C/C=C/C(=O)OCC(=O)Nc1ccc(Cl)cc1,-7%,-3,0%,9,1%[9.22 µM],-3%
CCOC(=O)C1CCN(C(=O)c2ccc3c(c2)NC(=O)/C(=C\c2ccc(C)cc2)S3)CC1,1%,14,40%,-16,-18%,3%
Nc1c(Cl)cc(C2=NCCn3c2c2ccccc2[n+]3[O-])cc1Cl,-15%,24,8%,22,-8%,-7%
COCc1c(C(=O)NCCc2ccc(OC(F)F)cc2)oc2ccccc12,?,7,?,-9,?,-6%
COc1cc(Cl)c(C)cc1NC(=O)Cc1cccs1,-7%,-20,-2%,1,?,14%
COc1ccc(OC)c(/C=C/C(=O)c2ccc(Cl)cc2)c1,4%,22,21%,-15,6%,-9%
C/[N+]([O-])=C/c1c(OCc2ccccc2)ccc2ccccc12,-5%,-2,-6%,0,11%,-10%
COc1ccc(C2NC(c3ccc(OC)c(OC)c3OC)C(C)C(=O)C2C)c(OC)c1OC (stereo not drawn),-2%,33,11%,1,-22%,5%
Cc1c(C(=O)OCC(=O)N(C)Cc2ccc(Cl)cc2)oc2ccccc12,-1%,5,15%,-2,?,25%
COc1ccc(C2CC(=O)Oc3cc(OC)c(OC)c(OC)c32)cc1 (stereo not drawn),-1%,3,-5%,17,18%,3%
CCOC(=O)C1CCN(C(=O)CCCNC(=O)Cn2cnc3sc(C)c(C)c3c2=O)CC1,-8%,6,21%,18,1%,0%
CC1(C(=O)NCc2cccc3ccccc23)CCN1Cc1ccc2ccccc2c1 (stereo not drawn),-1%,39,21%,3,1%,-1%
CCCCCCCC(=O)N/N=C(/C)c1c(O)cc(C)oc1=O,1%,14,24%,3,-42%[inhibitor],-5%
COc1cc(OC)c(S(=O)(=O)N2CCCCC2)cc1S(=O)(=O)N1CCCCC1,-5%,21,16%,2,7%,-6%
Cc1ccc(S(=O)(=O)CC(=O)c2cc3cccc(C)c3oc2=O)cc1,4%,-2,21%,3,-1%,1%
CC(C)N1CCc2c(sc(NC(=O)c3cc(-c4cccs4)nc4ccccc34)c2C(N)=O)C1,-24%,23,42%,2,-21%,?
Cc1ccc2nc(-c3cccc(SC4CCCCC4)c3)c(NC3CCCCC3)n2c1,5%&-4%,24&-8,-14%&-7%,2&-5,27%&-6%,1%&-4%
N#Cc1c(N)c(C#N)c(-c2ccc(O)cc2)c2c1CCCC2,3%,31,-13%,4,23%,10%
COc1cccc(C(=O)NCCS(=O)(=O)N2CC(C)CC(C)C2)c1 (stereo not drawn),0%,9,/,2,28%,8%

# High-throughput results from PubChem.
